Source: PubChem
Sa growth inh: S. aureus growth inhibition at 42 and 30 °C, primary screen, LtaS inhibitor project, RN4220, two temperatures; OD600, 20 h, 42 °C; stronger effect = lower value; relative growth, % (concentration not given with the values); 170,000 compounds, 0.53% hits; AID 720641, 2013;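 active means growth at 42 °C up to 50% and 20 or more points under that at 30 °C, or under 10% at both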;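 further: 300 nL library stock went into each well; scaled to the means of positive and negative controls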
HCMV UL50-53 inh: inhibitors of HCMV UL50-UL53 interaction, biochemical, HTRF; HCMV UL50-UL53 nuclear egress complex (human cytomegalovirus); normalized percent inhibition; inhibition, % (concentration not given with the values); 190,000 compounds, 0.15% hits; AID 1918969, 2023;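 active means both replicates at 50% or more, plus weaker picks with an unusually low signal ratio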;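 further: stock transfer was 100 nL into about 20 µL; 0% = negative control wells and 100% = wells with untagged competitor protein; inactives centre near -12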
GIV-Gai inh: inhibitors of GIV peptide binding to Galpha-i3, primary screen, biochemical, fluorescence polarization, FITC-GIV GBA peptide, rat Galphai3; 210,000 compounds, 0.42% hits; percent of control (FP), % (test concentration not listed); 90 min; stronger effect = lower value; scaled: aluminum fluoride 0%, vehicle 100%; Guanine nucleotide-binding protein G(i) subunit alpha-3 (Rattus norvegicus), P08753;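 active means replicate mean at 85% of control or lower, very high polarization wells dropped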;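 further: wells of about 15 µL received 100 nL stock; the first replicate is given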
Target sequence (P08753 whole entry, looked up): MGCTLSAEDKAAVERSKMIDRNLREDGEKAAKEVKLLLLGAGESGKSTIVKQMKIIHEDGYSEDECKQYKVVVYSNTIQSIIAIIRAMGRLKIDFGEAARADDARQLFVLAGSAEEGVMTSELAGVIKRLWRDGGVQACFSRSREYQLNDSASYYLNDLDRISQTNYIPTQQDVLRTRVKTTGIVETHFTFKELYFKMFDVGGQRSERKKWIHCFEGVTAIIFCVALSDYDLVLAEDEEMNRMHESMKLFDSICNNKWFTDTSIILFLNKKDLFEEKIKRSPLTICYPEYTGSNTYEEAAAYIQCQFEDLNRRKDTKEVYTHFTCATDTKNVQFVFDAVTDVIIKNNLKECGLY
Sa growth inh second temp: second read-out of Sa growth inh, no call of its own (marks repeat the call); relative growth, %; measured here: growth at 30 °C;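 optical density after 20 h as mean of two plates; 100% = untreated growth and lower means inhibition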
An asterisk follows results filed as active; nt = not tested or not shown.

Screens in order: Sa growth inh | Sa growth inh second temp | HCMV UL50-53 inh | GIV-Gai inh
> COc1ccccc1NC(=O)Cn1c(=O)n(-c2ccc(C)cc2)c(=O)c2ccc(C(=O)NCc3ccco3)cc21
→ 110 | 92 | 3 | 105
> CSC1=N/C(=C\c2ccccc2Cl)C(=O)N1N(C)C
→ 89 | 88 | -8 | 103
> CN1Cc2cc(C(=O)c3ccccc3O)cnc2NC1=O
→ 83 | 85 | -31 | nt
> CC(C)(Oc1ccc(Cl)cc1)C(=O)OCC(=O)N1CCN(c2ccccc2)CC1
→ 101 | 85 | -28 | nt
> Cc1cc(C)c(C#N)c(Sc2ccc(Cl)cc2)n1
→ 97 | 88 | -11 | 104
> Cc1ccc(C)c(NC(=O)Cn2c(=O)n(-c3ccc(CC(=O)NCC4CCCO4)cc3)c(=O)c3ccccc32)c1 (stereo unspecified)
→ 86 | 93 | -10 | 103
> CN(C)c1ccc(/C=C(\C#N)C(=O)OC(C)(C)C)cc1
→ 89 | 86 | -83 | 228
> CCCCN(CC)c1ccc2nnc(CCC(=O)O)n2n1
→ nt | nt | -34 | 98
> COc1cccc(C(=O)CS(=O)(=O)c2ccc(C)cc2)c1
→ 100 | 96 | 6 | 109
> COc1ccc(NC(=O)Cn2c(=O)n(Cc3ccco3)c(=O)c3oc4ccccc4c32)cc1Cl
→ 108 | 74 | nt | 100
> COC(=O)c1c(C)oc2cc(Br)c(OCc3c(F)cccc3Cl)cc12
→ nt | nt | -8 | 103
> CCOc1ccc(OCC)c(NS(=O)(=O)c2ccc3[nH]c(=O)c(=O)[nH]c3c2)c1
→ 81 | 88 | -36 | 101
> COc1ccc(CNC(=O)Cc2c(C)c3cc4c(C)coc4cc3oc2=O)cc1
→ 107 | 86 | -36 | 101
> CCN(C(=O)CSc1nnc(Cc2ccccc2)o1)C1=CCCCC1
→ 97 | 92 | -19 | nt
> COc1ccc(-c2c(C(F)(F)F)oc3c(CN4CCCC(C)C4)c(O)ccc3c2=O)cc1OC (stereo unspecified)
→ 98 | 94 | nt | 104
> CCn1c(CC(=O)OC)csc1=Nc1ccc(Cl)cc1
→ 88 | 77 | 17 | 102
> CCNc1cc(N(C)C)nc(Oc2ccc(OCCOc3ccccc3C)nn2)n1
→ 90 | 81 | nt | 104
> O=C(CSc1ccccc1)N1CCN(c2ccccc2)CC1
→ 114 | 96 | 0 | 107
> Cc1csc(N(C(=O)c2ccc(S(=O)(=O)N3CCOCC3)cc2)c2ccccc2)n1
→ 100 | 94 | -22 | nt
> Cc1ccc(NC(=O)Nc2ccc3snnc3c2)cc1C
→ 93 | 78 | -13 | 107
> CC(C)(C)NC(=O)CN1CCN(c2cc(C(=O)O)c3cc(NC(=O)C4CC4)ccc3n2)CC1
→ nt | nt | -2 | 103
> Cc1cccc(-c2noc(CSc3nc(-c4ccc(F)cc4)cc(=O)[nH]3)n2)c1
→ 106 | 74 | nt | 95
> CC(C)n1cnc(S(=O)(=O)N2CCCC(C(=O)N3CCc4ccccc43)C2)c1 (stereo unspecified)
→ nt | nt | -5 | 109
> CS(=O)(=NS(=O)(=O)c1cccc2nsnc12)c1ccc(Cl)cc1 (stereo unspecified)
→ 83 | 85 | -126 | 96
> O=c1c2sc3ccccc3c2[nH]c(=S)n1CCCN1CCN(c2ccccc2F)CC1
→ 108 | 89 | nt | 98
> O=C(c1cccs1)N1CCc2ccccc2C1
→ 96 | 79 | -18 | 98
> Cc1ccccc1NC1CC(C)N(C(=O)c2ccc(F)cc2)c2c(C)cccc21 (stereo unspecified)
→ nt | nt | -10 | 99
> O=C(Nc1ccc(Cl)cc1)C1CCN(c2ncnc3c2sc2cccc(F)c23)CC1
→ nt | nt | -7 | 104
> CCN(CC)CCOC(=O)c1ccc(NC(=O)CCN2C(=O)S/C(=C/c3ccc(OC)cc3)C2=O)cc1
→ nt | nt | -47 | 102
> O=C(c1cc(-c2cccs2)on1)N1CCCCC1
→ 106 | 73 | -8 | 104
> O=C(NCc1ccc(Cl)cc1)c1cnc2sc(N3CCOCC3)nn2c1=O
→ 101 | 94 | nt | 97
> CSc1nnc(-c2sc3nc(C)cc(C)c3c2N)n1Cc1ccccc1
→ 98 | 87 | -128 | 98
> CCn1c(COC(=O)C2CSC3(C)CCC(=O)N23)nc2cc(S(=O)(=O)N(C)C)ccc21 (stereo unspecified)
→ 101 | 97 | -24 | nt
> COC(=O)c1cnn(-c2cccc(F)c2)c1-n1cccc1
→ nt | nt | -20 | 101
> COc1ccc(CSc2nc3ccncc3n2Cc2ccc(OC)cc2)cc1
→ nt | nt | -33 | 99
> CCCCc1nc(NCc2ccccc2)c(C#N)c2c1CCCC2
→ 91 | 96 | 0 | 97
> Cc1noc(C)c1S(=O)(=O)N(Cc1ccccn1)Cc1ccccn1
→ 98 | 81 | -27 | 105
> CC1=C/C(=N/N=c2\sc3ccccc3n2C)CC(C)(C)C1
→ 97 | 94 | -18 | nt
> CCOC(=O)c1[nH]cc(-c2ccccc2)c1N1CCOCC1
→ 100 | 87 | -26 | 104
> N#Cc1ccccc1OCc1ccccc1
→ 91 | 103 | -2 | 97
> O=C(O)Cn1c(SC(F)F)nc2ccccc21
→ 83 | 87 | -22 | nt
> N#C/C(N)=C(/C#N)NCc1ccccc1Sc1ccc(Cl)cc1
→ 52 | 28 | -4 | 107
> CC(C)c1cc(-c2nc(-c3ccncc3)no2)n[nH]1
→ nt | nt | -31 | 105
> Cc1cc(NC(=O)CN2C(=O)C3CCCCN3c3ccc(C(=O)N(C)C)cc32)no1 (stereo unspecified)
→ nt | nt | -22 | 104
> O=C(NCc1ccc2c(c1)OCO2)c1ccc(-n2nc(OCc3cccc(F)c3)ccc2=O)cc1
→ nt | nt | 9 | 96
> Nc1nnn(Cc2ccccc2)n1
→ 100 | 86 | -10 | nt
> O=C(c1ccccc1)N1CCCCC1CCN1CCCCC1 (stereo unspecified)
→ 83 | 91 | -13 | 100
> Clc1cccc(-c2nc(N3CCCC3)nc3c2COc2ccccc2-3)c1
→ 87 | 63 | nt | 99
> Cc1ccc(NCc2cc(=O)n3[nH]c(NCc4ccc(C(C)C)cc4)nc3n2)c(C)c1
→ nt | nt | -17 | 106
> O=C1CCCCC1Sc1nc2ccccc2s1 (stereo unspecified)
→ 114 | 91 | nt | 95

3 entries out of the list above, ordered by their value in GIV-Gai inh, rising:
compound	Sa growth inh second temp	GIV-Gai inh
O=C(c1ccccc1)N1CCCCC1CCN1CCCCC1 (stereo unspecified)	91	100
CC(C)c1cc(-c2nc(-c3ccncc3)no2)n[nH]1	nt	105
N#C/C(N)=C(/C#N)NCc1ccccc1Sc1ccc(Cl)cc1	28	107

Further entries.
Screens in order: Sa growth inh | Sa growth inh second temp | HCMV UL50-53 inh | GIV-Gai inh
> CCCCn1c(N)c(C(=S)NC(=O)C2CC2)c(=O)[nH]c1=O
→ 70 | 93 | -6 | nt
> COc1ccccc1-c1cc(C(F)(F)F)nc(S(=O)(=O)CCCC(=O)Nc2cc(C)ccc2O)n1
→ 59 | 47 | -15 | 104
> Cc1nc(N2CCN(C(=O)c3ccco3)CC2)nc2c1C(=O)CC(c1ccccc1)C2 (stereo unspecified)
→ 98 | 99 | -12 | 99
> CCOc1ccc(-c2cc(C(=O)Oc3ccccc3Br)no2)cc1
→ nt | nt | 2 | 100
> CCOC(=O)Nc1ccc(OC)cc1
→ 112 | 89 | -5 | 102
> O=C(N[C@@H](Cc1ccccc1)c1nc2ccccc2[nH]1)C1CC(=O)N(c2ccc3c(c2)OCCO3)C1 (stereo partly specified)
→ 69 | 91 | -7 | nt
> C[N+]1(CCC(=O)NCc2ccccc2)CCCCC1
→ 73 | 94 | nt | 105
> N#Cc1ccc(OCC(=O)N2CCCC2)cc1
→ 120 | 85 | -28 | nt
> CCOC(=O)C1(c2cccn2C)Sc2ccccc2NC1=O (stereo unspecified)
→ 90 | 93 | -17 | nt
> O=C(NC(=S)Nc1ccc(N2CCOCC2)cc1)c1ccccc1
→ 114 | 81 | -16 | 99
> CCC(=O)c1ccc(CCCCCC(=O)O)s1
→ 100 | 101 | -9 | 96
> C=CCNc1nc(N)c(C(=O)c2ccc(Cl)s2)s1
→ 76 | 54 | -69 | 104
> Nn1cnn(CC(=O)Nc2nccs2)c1=S
→ 72 | 98 | 12 | nt
> Cc1c(Cl)c([N+](=O)[O-])nn1CC(=O)Nc1cc(Oc2ccccc2)cc(Oc2cccnc2)c1
→ nt | nt | -17 | 100
> CCOC(=O)C1=C(C)NC(=O)CC1c1ccncc1 (stereo unspecified)
→ 108 | 83 | -73 | nt
> Cc1nn(C)c2c1c(C(F)(F)F)cc(=O)n2CC(=O)N1CCC(C)CC1
→ 96 | 90 | nt | 102
> O=c1c2c(nc3cc(-c4ccccc4)[nH]n13)CSC2
→ 104 | 87 | -5 | 102
> CCC1CCCCN1C(=S)NCc1ccccc1 (stereo unspecified)
→ 111 | 84 | -5 | nt
> NC(=O)CC1Sc2ccccc2NC1=O (stereo unspecified)
→ 91 | 79 | -11 | nt
> COc1ccc(-c2cc(C(F)(F)F)n3nc(C(=O)N4CCOCC4)c(Cl)c3n2)cc1
→ nt | nt | -44 | 97
> O=C(Nc1cccc(-c2nc3ccccc3o2)c1)c1cccc(OCc2ccccc2)c1
→ 124 | 93 | nt | 107
> O=C1OC(Nc2ccccc2C(F)(F)F)c2ccccc21 (stereo unspecified)
→ 81 | 89 | 7 | 100
> CC1CCCCN1S(=O)(=O)c1cnc[nH]1 (stereo unspecified)
→ 102 | 93 | -2 | 93
> COc1ccc(C(=O)COC2=C(C#N)C3(CCCC3)C(C#N)C(=S)N2)cc1OC (stereo unspecified)
→ 114 | 67 | 0 | nt
> Cc1ccc(Cn2c(C(=O)O)c(CNC3CCCCCC3)c3ccc(C)cc32)cc1
→ 101 | 76 | nt | 101
> O=C(c1ccc(S(=O)(=O)N2CCCCC2)cc1)N(c1ccccn1)C1CCCCC1
→ 103 | 94 | -4 | nt
> O=C(COc1ccc(S(=O)(=O)Nc2ccccc2)cc1)N1CCOCC1
→ 104 | 102 | -29 | 106
> CC(Sc1cccc[n+]1[O-])C(=O)NCC1CCCCC1 (stereo unspecified)
→ 99 | 99 | -5 | nt
> O=C(NCc1cccn1Cc1ccccc1)NC1CCCC1
→ 107 | 92 | -26 | 107
> CN(C)c1ccc(/C=C2\C(=O)N(c3ccccc3)N=C2C(=O)O)cc1
→ 110 | 116 | -37 | 116
> CCOC(=O)C1=C(C)NN=C(C)C1
→ 111 | 74 | nt | 96
> Cc1cc2cc(CNC(=O)/C=C\c3ccc4c(c3)OCO4)ccc2n1C
→ 112 | 88 | nt | 101
> CN1C(=O)/C(=C/c2ccc(Cl)cc2)N(C)C1=S
→ 101 | 63 | nt | 97
> N#C/C(=C\c1ccccc1Cl)c1nc(-c2cc3cc(Br)ccc3oc2=O)cs1
→ nt | nt | -14 | 110
> Oc1ccc(I)nc1CCc1ccccc1
→ 87 | 55 | nt | 95

In the list so far, 16 contain a Cl atom.
Screens in order: Sa growth inh | Sa growth inh second temp | HCMV UL50-53 inh | GIV-Gai inh
> CSC1=N/C(=C\c2ccccc2Cl)C(=O)N1N(C)C
→ 89 | 88 | -8 | 103
> CC(C)(Oc1ccc(Cl)cc1)C(=O)OCC(=O)N1CCN(c2ccccc2)CC1
→ 101 | 85 | -28 | nt
> Cc1cc(C)c(C#N)c(Sc2ccc(Cl)cc2)n1
→ 97 | 88 | -11 | 104
> COc1ccc(NC(=O)Cn2c(=O)n(Cc3ccco3)c(=O)c3oc4ccccc4c32)cc1Cl
→ 108 | 74 | nt | 100
> COC(=O)c1c(C)oc2cc(Br)c(OCc3c(F)cccc3Cl)cc12
→ nt | nt | -8 | 103
> CCn1c(CC(=O)OC)csc1=Nc1ccc(Cl)cc1
→ 88 | 77 | 17 | 102
> CS(=O)(=NS(=O)(=O)c1cccc2nsnc12)c1ccc(Cl)cc1 (stereo unspecified)
→ 83 | 85 | -126 | 96
> O=C(Nc1ccc(Cl)cc1)C1CCN(c2ncnc3c2sc2cccc(F)c23)CC1
→ nt | nt | -7 | 104
> O=C(NCc1ccc(Cl)cc1)c1cnc2sc(N3CCOCC3)nn2c1=O
→ 101 | 94 | nt | 97
> N#C/C(N)=C(/C#N)NCc1ccccc1Sc1ccc(Cl)cc1
→ 52 | 28 | -4 | 107
> Clc1cccc(-c2nc(N3CCCC3)nc3c2COc2ccccc2-3)c1
→ 87 | 63 | nt | 99
> C=CCNc1nc(N)c(C(=O)c2ccc(Cl)s2)s1
→ 76 | 54 | -69 | 104
> Cc1c(Cl)c([N+](=O)[O-])nn1CC(=O)Nc1cc(Oc2ccccc2)cc(Oc2cccnc2)c1
→ nt | nt | -17 | 100
> COc1ccc(-c2cc(C(F)(F)F)n3nc(C(=O)N4CCOCC4)c(Cl)c3n2)cc1
→ nt | nt | -44 | 97
> CN1C(=O)/C(=C/c2ccc(Cl)cc2)N(C)C1=S
→ 101 | 63 | nt | 97
> N#C/C(=C\c1ccccc1Cl)c1nc(-c2cc3cc(Br)ccc3oc2=O)cs1
→ nt | nt | -14 | 110

Hits appear at their usual frequency. About 0.85% of those tested had a hit in this group.
